Source: PubChem (National Center for Advancing Translational Sciences (NCATS))
TRPML1 agonist – human mucolipin-1 channel agonism | TRPML1-expressing cells, Ca2+ dye fluorescence, FDSS; host cell line not named in the record; reference of the full effect not given here | activation, % (no concentration beside the values) | 0.12% of 410,000 active; in the data active = activation above about 50%; inconclusive = about 30% to 50%; inactive = below about 30%; also: 0% is about no effect; the text of the record puts the active cut at 80%
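Cells: TRPML1-DL, 1X Tet inducer, ~16 h at 37 degrees C/5% CO2. Dye: ABD Ca8 no-wash + quencher, 45-90 min RT. Read: 10 s baseline, compound add, 110 s agonist phase; 54-4 EC80 (4uM final), 110 s antagonist phase.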
ClpP mod – qHTS Assay for Activators of ClpP; ATP-dependent Clp protease proteolytic subunit (Bacillus subtilis (strain 168)), P80244; purified B. subtilis ClpP, FRET peptide cleavage, 20 min; Potency, µM (top dose mostly 57.5 µM), without a hit: at the top dose activity change, negative = active; 1.9% of 340,000 active; AID 651965, 2013; active = well fitted falling curve with a large enough effect; inconclusive = small, poorly fitted or top-dose-only effect; inactive = no such curve, though single readings can be large or run the other way; also: potency is read from the fitted curve at half-maximal effect; the source files actives as falling curves though it sought activators and does not explain the sign; nearly all actives have a fitted effect of over 65% in size; many hits overshoot -100%
Target sequence (P80244 whole entry, looked up): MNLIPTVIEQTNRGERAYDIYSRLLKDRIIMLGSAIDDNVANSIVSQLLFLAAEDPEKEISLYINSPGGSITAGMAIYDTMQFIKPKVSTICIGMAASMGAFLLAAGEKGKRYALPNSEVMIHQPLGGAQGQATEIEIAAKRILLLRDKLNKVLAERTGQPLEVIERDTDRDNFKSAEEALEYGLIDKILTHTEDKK
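Purified B. subtilis ClpP, 10 microg/mL final in Tris/HCl pH8 with KCl, BSA, glycerol and Tween-20, cleaved an Abz/nitrotyrosine-quenched decapeptide. Fluorescence (ex 320, em 430) was read at 0 and 20 min at room temperature. Delta was normalized to 5.8 microM ADEP and DMSO/no-enzyme controls.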
Sfp inh – Sfp phosphopantetheinyl transferase inhibition; Q9F4F7; Biochemical Sfp PPTase activity, qHTS; Potency, µM, without a hit: max response, negative = inhibition, usual class: inhibitors; 3.5% of 310,000 active; active = well fitted inhibition curve with a large enough effect; inconclusive = small, poorly fitted or top-dose-only effect, or another doubt; inactive = no such curve, though single readings can be large or run the other way;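 also: the enzyme is Sfp with the accession as filed and its product quenches rhodamine fluorescence; potency is read from the fitted curve at half-maximal effect; 0% = enzyme reaction without inhibitor and -100% = no enzyme wells; top concentration of the series not given in the record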
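Step 1, compound plus 15 nM Sfp-PPTase, 15 min, room temperature. Step 2, add rhodamine-CoA (5 uM) and BHQ-2-YbbR (12.5 uM). Step 3, read 525/598 nm fluorescence at 0 and 30 min.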
TRPML1 blocker – inhibitors of human TRPML1 channel; Q9GZU1; TRPML1-inducible cells, Ca2+ dye fluorescence, FDSS; stronger effect = lower value; inhibition of EC80 agonist-evoked calcium signal; activity change, negative = inhibition, % (test concentration not listed); 0.02% of 390,000 active; in the data active means activity change below about -50%; inconclusive means about -30% to -50%; inactive means above about -30%;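 also: stimulus is agonist 54-4 at its EC80 concentration; % is scaled to controls: 0 for no effect and ±100 for the full control effect; compound concentration not given in the record; the text of the record puts the active cut at -80%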
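Tet-induced TRPML1-DL cells loaded with Ca8 no-wash calcium dye were read kinetically on FDSS. Compound addition was followed by EC80 agonist 54-4 (4 uM final); inhibition was read over 110 s.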
PINK1 modulator – PINK1 expression modulation; PINK1 immunofluorescence, high-content cytometry, 24 h; Potency, µM (doses to about 76.6 µM), for the others: top-dose activation (PINK1 increase), hits mostly activators; 0.2% of 410,000 active; AID 624263; active = well fitted activation curve with a large enough effect; inconclusive = small, poorly fitted or top-dose-only effect; inactive = flat fitted curve, though single readings scatter; cell line not stated here;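 also: potency is read from the fitted curve at half-maximal effect; % of control where 0% means no effect; nearly all actives have a fitted effect of over 65% in size; a mitochondrial uncoupler was the plate control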
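Readout is PINK1 immunofluorescence, quantified alongside mitochondrial, cell and nuclear markers by laser-scanning microplate cytometry. Cells from a stable line were exposed to compound titrations (5 concentrations) for 24 hours, with CCCP controls.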
Menin MLL FP FL – inhibitors of human menin-MLL interaction, wild-type MLL peptide. Fluorescence polarization, fluorescein-MLL peptide displacement from menin. FP activity change, % at 61.4 µM. 290,000 tested, under 10 active; inconclusive = falling polarisation curve, or a change in total fluorescence; inactive = total fluorescence flat and polarisation flat or rising; no compound was filed as active; the % refers to the polarisation; negative = inhibition;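 also: % of control where 0% means no effect; inhibitors lower the polarisation; unlabelled MLL peptide was the positive control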
TRPV1 potentiator – human TRPV1 potentiation; Q8NER1; TRPV1-expressing cells, Fluo-8 calcium influx, capsaicin EC20 potentiation; host cell line not named in the record; control for the full effect not named in the record; potentiation, % at 8.33 µM; 0.02% of 320,000 active; AID 540277; active means potentiation above 80%; inconclusive means 30% to 80%; inactive means below 30%; also: 0% is about no effect
Target sequence (Q8NER1 whole entry, looked up): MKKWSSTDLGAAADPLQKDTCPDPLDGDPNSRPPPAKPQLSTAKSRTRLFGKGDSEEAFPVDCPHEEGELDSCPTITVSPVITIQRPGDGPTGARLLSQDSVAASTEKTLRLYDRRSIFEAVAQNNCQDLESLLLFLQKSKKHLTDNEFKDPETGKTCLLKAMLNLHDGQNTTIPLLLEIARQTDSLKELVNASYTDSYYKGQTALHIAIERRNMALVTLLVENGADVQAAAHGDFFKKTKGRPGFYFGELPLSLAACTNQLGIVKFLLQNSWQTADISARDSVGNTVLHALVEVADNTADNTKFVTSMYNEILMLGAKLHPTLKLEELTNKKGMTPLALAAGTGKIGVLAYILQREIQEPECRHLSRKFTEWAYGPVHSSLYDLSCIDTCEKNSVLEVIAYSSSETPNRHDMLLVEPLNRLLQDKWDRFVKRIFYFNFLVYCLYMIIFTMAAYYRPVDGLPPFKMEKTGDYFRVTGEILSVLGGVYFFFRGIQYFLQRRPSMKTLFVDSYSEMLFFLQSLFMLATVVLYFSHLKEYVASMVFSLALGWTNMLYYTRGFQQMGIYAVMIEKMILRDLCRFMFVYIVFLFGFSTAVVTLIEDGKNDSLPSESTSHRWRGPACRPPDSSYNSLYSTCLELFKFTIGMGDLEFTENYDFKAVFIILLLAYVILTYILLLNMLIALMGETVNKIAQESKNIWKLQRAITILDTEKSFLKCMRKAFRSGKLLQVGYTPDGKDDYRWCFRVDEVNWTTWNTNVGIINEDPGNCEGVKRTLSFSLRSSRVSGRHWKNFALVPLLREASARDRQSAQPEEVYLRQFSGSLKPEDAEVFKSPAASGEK
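Fluo-8 calcium influx in TRPV1-expressing cells, kinetic read (ex 480/em 520 nm). Compound added and read 3 min for agonist activity, followed by capsaicin at EC20 final and 2 min further read for enhancement.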
The depositor's hits bear a star; ? = inconclusive; . = not tested or not shown; & = joins results of further samples; [ ] = dose if it differs, or a comment.

1	O=[N+]([O-])c1ccc(C(S(=O)(=O)Cc2ccccc2)S(=O)(=O)Cc2ccccc2)cc1
2	Cc1ccc(NS(=O)(=O)c2ccc(-c3coc(C)n3)cc2)c(C)c1
3	CCCC(C)C(=O)Nc1nc(C)c(-c2csc(Nc3ccccc3OC)n2)s1 (centres undefined)
4	Cc1csc(NC(=O)C(C)Oc2ccc(Br)cc2)n1 (centres undefined)
5	COc1ccc(C2=NN(C(=O)CSc3nc4ccccc4s3)C(c3ccc(F)cc3)C2)cc1 (centres undefined)
6	CN(Cc1ccccc1)S(=O)(=O)c1ccc2c(c1)n(C)c(=O)c(=O)n2C
7	COc1ccc(/C=N/OCc2ccc(Br)cc2)c(OC)c1
8	CCOC(=O)C1=C(C)NC(SCC(N)=O)=C(C#N)C1c1ccncc1 (centres undefined)
9	N=C1CCCN1CC(=O)c1ccc(Cl)cc1
10	CC(C)NC(=O)c1onc(CSc2ccc(Cl)cc2)c1C(=O)NC(C)C

compound no.	1	2	3	4	5	6	7	8	9	10
TRPML1 agonist	1.9	1.8	0.8	2.0	-0.4	.	3.5	0.2&-0.3	-0.2	0.7
ClpP mod	0.2%	-0.1%	-12%	5.6%	-17%	-3.4%	-1.1%	-5.4%&0.0%	1.6%	-1.0%
Sfp inh	.	1%	?	.	-2%	28%	0%	11%	18%	-2%
TRPML1 blocker	19	18	60	22	42	.	-10	17&-8	-5	10
PINK1 modulator	2.3%	1.6%	4.2%	-0.5%	2.1%	0.4%	?	0.1%&0.1%	0.5%	0.6%
Menin MLL FP FL	.	-2.3	4.5	.	0.7	-1.3	-9.9	4.1	-0.5	7.7
TRPV1 potentiator	.	10	2	-8	-5	-3	-16	5	4	-30

11	Cn1c2c(c(=O)n(C)c1=O)C(c1ccc(O)cc1)Nc1ccccc1O2 (centres undefined)
12	COc1cc(C)c(C)cc1S(=O)(=O)N1CCN(Cc2ccccc2)CC1
13	Cc1ccccc1-n1c(SCC(=O)N/N=C/c2c(C)nn(-c3ccccc3)c2C)nc2ccccc2c1=O
14	Cc1ccc(-n2c(Cn3cnc4ccccc43)nnc2SCC(=O)O)cc1
15	COc1ccc(CCN(C)C(=S)NC(=O)c2ccc(F)cc2Cl)cc1OC
16	Cc1cccc(NC(=O)CSc2nc(=O)n(CCCN3CCOCC3)c3c2CCCC3)c1
17	O=C(CSc1nc2ccccc2[nH]1)NC(=O)NCc1ccco1
18	Cn1c(CSc2ncccn2)nnc1SCC(=O)N1CCCC1
19	CCOc1nc(C)cc(C)c1S(=O)(=O)c1cccc(C)c1
20	O=c1cc(-c2cccc([N+](=O)[O-])c2)[nH][nH]1

compound no.	11	12	13	14	15	16	17	18	19	20
TRPML1 agonist	-0.4	-0.4	-0.1	-0.1	0.9	0.4	2.8	0.6	.	-0.8
ClpP mod	-1.0%	-1.5%	0.5%	-0.8%	.	-27%	-0.6%	-2.0%	.	-2.9%
Sfp inh	11%	6%	10%	6%	19%	.	?	17%	?	-1%
TRPML1 blocker	-2	9	-13	4	7	-7	-6	-12	.	-6
PINK1 modulator	-1.8%	.	1.3%	2.0%	5.0%	-1.1%	0.7%	0.2%	.	1.6%
Menin MLL FP FL	-1.0	-2.5	5.4	0.2	2.1	.	7.4	-1.7	0.6	-2.1
TRPV1 potentiator	3	14	25	5	1	-6	14	4	12	14

21	CCOC(=O)N(C)c1c(CC)nc2c(OCCC3CCCCC3)cccn12
22	O=NN(CCCl)C(=O)NCCCl
23	CCc1ccc(C(=O)Nc2ccc3nc(C)ccc3c2)cc1
24	CCc1ccc(C(=O)Nc2ccc(C)c(NS(C)(=O)=O)c2)cc1
25	CCOC(=O)N1CCN(C(=O)COC(=O)c2oc3ccc(OC)cc3c2C)CC1
26	CN(Cc1cnccn1)Cc1ccccc1OCC(O)CN1CCc2ccccc2C1 (centres undefined)
27	CCOCCn1c(COc2ccccc2)nc2ccccc21
28	Cc1ccc(NC(=S)NC(=O)CC2CC(C)(C)OC2=O)cc1 (centres undefined)
29	CCCOc1ccc(N2C(=O)CC(N3CCOCC3)C2=O)cc1 (centres undefined)
30	Cc1cc(O)c(Sc2ccc(Cl)cc2)c(=O)[nH]1

compound no.	21	22	23	24	25	26	27	28	29	30
TRPML1 agonist	-0.1	0.2	1.3	-1.1	1.0	0.2	1.2	0.5	-0.4	1.0
ClpP mod	?	0.3%	-1.6%	1.4%	?	.	-0.3%	-0.6%	0.4%	.
Sfp inh	.	5%&-2%	-5%	8%	8%	-15%	-9%	24%	11%	.
TRPML1 blocker	-24	2	3	41	-23	-7	-10	2	-6	14
PINK1 modulator	?	-1.0%&1.6%	1.6%	1.0%	2.2%	-0.4%	1.0%	0.5%	4.6%[38.3 µM]	1.9%
Menin MLL FP FL	.	3.4&-1.4&0.1	1.3	-1.0	-2.7	-4.0	1.0	1.4	3.4	.
TRPV1 potentiator	.	-2	-51	-16	4	-2	-26	-6	-16	.

31	O=C(NNc1ccc([N+](=O)[O-])cc1[N+](=O)[O-])c1ccco1
32	NNc1nc2c(Cl)c(Cl)ccc2s1
33	COc1cc(CNn2nnnc2N)ccc1OCc1c(Cl)cccc1Cl
34	Cc1ccc(C)n1NC(=O)c1cccs1
35	Cc1noc(C)c1C(=O)Nc1cccc(S(=O)(=O)N2CCOCC2)c1
36	COc1cccc(/C=N/Nc2nnc3c(n2)[nH]c2ccccc23)c1OC
37	CCCCCc1ccc(CC(=O)O)cc1
38	CCOC(=O)N(C)S(=O)(=O)c1ccccc1[N+](=O)[O-]
39	CC(C)C(C(=O)NCc1ccco1)N(C(=O)CNS(=O)(=O)c1ccccc1)C1CCCC1 (centres undefined)
40	Cc1cc2nc(C(C)(C)C)cc(N)n2n1

compound no.	31	32	33	34	35	36	37	38	39	40
TRPML1 agonist	-0.8	-0.2	-0.7	-1.1	-0.6	0.4	-0.4	0.1	2.3	0.1
ClpP mod	-1.4%	-7.6%	-0.7%	-7.4%	-0.5%	.	1.0%	.	1.3%	.
Sfp inh	-15%	-4%	21%	-2%	.	7%	8%	13%	-3%	4%
TRPML1 blocker	23	19	23	8	-13	-4	7	-7	-5	3
PINK1 modulator	?	-1.7%	4.0%[38.3 µM]	0.2%	0.1%	13%	5.4%	0.5%	-1.9%	0.3%
Menin MLL FP FL	-0.6	9.0	-0.6	-0.5	.	7.5	6.4	-1.3	1.0	1.3
TRPV1 potentiator	-6	-2	14	-3	17	0	8	-9	18	3

41	O=C(CSc1ccc2nnc(-c3cccnc3)n2n1)Nc1ccccc1F
42	O=S(=O)(NCCc1ccccc1)c1ccc(Br)cc1
43	Clc1ccc(-c2nnc(CNC3CC3)o2)cc1
44	CN(C)CCCNc1oc(-c2ccccc2Cl)nc1S(=O)(=O)c1ccc(F)cc1
45	CC(=O)Nc1ccc2c(c1)CN(c1cc(C)ccc1C)CO2
46	Nn1c(Cc2cccc3ccccc23)nnc1SCc1c(F)cccc1Cl
47	CCOC(=O)CNC(=O)C(Cc1ccccc1)NS(=O)(=O)c1ccc2c(c1)CCC(=O)N2 (centres undefined)
48	CC(Oc1ccccc1F)c1nnc(SCC(=O)Nc2ccc(N3CCOCC3)cc2)o1 (centres undefined)
49	Cc1c(CCC(=O)O)c(=O)oc2cc3occ(-c4ccc(Cl)cc4)c3cc12
50	CCOC(=O)c1nc(C)nc(Sc2n[nH]c(-c3ccccc3)n2)c1C
51	CC(C)=CCc1c(O)ccc(C2COc3c(CC=C(C)C)c(O)cc(O)c3C2=O)c1O (centres undefined)
52	Cc1cccc(NC(=O)CSc2nc(NS(=O)(=O)c3ccccc3)cc(=O)[nH]2)c1
53	O=C(NC1(C(F)(F)F)N=C(c2ccccc2)N(C2CCCCC2)C1=O)c1ccc(F)cc1 (centres undefined)

compound no.	41	42	43	44	45	46	47	48	49	50	51	52	53
TRPML1 agonist	-1.0	-0.8	1.7	0.1	0.6	1.3	1.4	-0.6	0.2	-1.2	0.2	1.8	-0.3
ClpP mod	-9.0%	.	0.9%	-1.7%	-1.8%	-1.8%	1.4%	-8.4%	.	0.0%	?	2.5%	0.6%
Sfp inh	.	-1%	5%	4%	16%	6%	.	.	?	-1%	.	-17%	.
TRPML1 blocker	7	-12	-10	-10	9	-12	5	11	-5	-9	-17	19	-5
PINK1 modulator	-0.6%	4.8%	-0.8%	0.3%	1.7%	0.9%	4.6%[38.3 µM]	1.0%	-1.2%	9.6%	4.9%	-0.7%	0.4%
Menin MLL FP FL	.	3.5	0.9	0.2	1.7	-5.0	.	.	-1.6	1.9	.	3.3	.
TRPV1 potentiator	.	-9	-5	13	3	-1	.	4	4	?	.	8	.

Record cards, from the list above. Values in the order: TRPML1 agonist | ClpP mod | Sfp inh | TRPML1 blocker | PINK1 modulator | Menin MLL FP FL | TRPV1 potentiator
`Clc1ccc(-c2nnc(CNC3CC3)o2)cc1` across the screens: 1.7 | 0.9% | 5% | -10 | -0.8% | 0.9 | -5
`CN(C)CCCNc1oc(-c2ccccc2Cl)nc1S(=O)(=O)c1ccc(F)cc1` across the screens: 0.1 | -1.7% | 4% | -10 | 0.3% | 0.2 | 13
`O=S(=O)(NCCc1ccccc1)c1ccc(Br)cc1` across the screens: -0.8 | . | -1% | -12 | 4.8% | 3.5 | -9
